# Bioassay records deposited in PubChem BioAssay by several laboratories.
# Calb FLC = C. albicans growth modulation with fluconazole; C. albicans CaCi-2 (fluconazole-resistant clinical isolate) + fluconazole, Alamar Blue growth, 48 h; growth inhibition, % (no concentration beside the values); 0.57% of 300,000 active;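 active = most replicates above 75%; inconclusive = exactly half above 75%; inactive = most below 75%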;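 also: all wells also contain fluconazole at 8 µg/ml as a sub-toxic cotreatment; 0% = median of DMSO wells and 100% = median of geldanamycin control wells; wells of about 8 µL received 7.5 nL stock; the first replicate is given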
# LANA-H2B inh = blocks KSHV LANA binding to histone H2A/H2B | Q9QR71 | cell-free LANA-H2A/H2B peptide, fluorescence polarization | inhibition, % (no concentration beside the values) | 0.6% of 320,000 active; in the data active = inhibition mostly above about 10%, no sharp cut-off; inactive = mostly below about 6.7%;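 also: stock transfer was 7.5 nL into about 10 µL; 0% = median of vehicle wells and 100% = median of positive control wells; one replicate is shown; the record names a cut of 25% in any replicate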
# HNF4A DNA FP = change in binding of human HNF4 alpha to DNA. activity change, % at 10 µM. P41235. HNF4a-FITC DNA binding, fluorescence polarization, 1 h. 0.3% of 360,000 active; in the data active = activity change above about 30%, passing the limit was not always enough;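 also: controls were the assay level and a saturating level of protein; the project sought stronger binding though the title names inhibitors; some compounds called inactive have numbers as strong as hits; positive values seem to mean higher polarization but the record does not say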
# Target sequence (P41235 whole entry, looked up): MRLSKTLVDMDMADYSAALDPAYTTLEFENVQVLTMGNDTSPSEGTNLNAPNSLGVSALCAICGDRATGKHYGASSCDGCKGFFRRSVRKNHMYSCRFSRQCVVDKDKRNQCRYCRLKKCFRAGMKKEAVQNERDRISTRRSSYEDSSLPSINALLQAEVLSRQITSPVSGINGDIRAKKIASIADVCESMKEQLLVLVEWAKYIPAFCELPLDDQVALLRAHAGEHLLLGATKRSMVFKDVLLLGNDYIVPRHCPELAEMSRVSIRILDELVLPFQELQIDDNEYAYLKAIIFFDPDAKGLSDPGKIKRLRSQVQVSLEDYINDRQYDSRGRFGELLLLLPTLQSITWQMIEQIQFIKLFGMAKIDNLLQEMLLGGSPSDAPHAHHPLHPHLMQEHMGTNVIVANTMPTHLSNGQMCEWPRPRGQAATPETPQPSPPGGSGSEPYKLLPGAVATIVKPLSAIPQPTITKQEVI
# ALR H2O2 inh = inhibitors of human sulfhydryl oxidase ALR; P55789; purified ALR, DTT oxidation, H2O2 HRP-luminol luminescence; inhibition, % (concentration not given with the values); 3.8% of 290,000 active;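 active = mean and each replicate at 75% or more; inconclusive = only one of the two met; inactive = neither met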;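 also: stock transfer was 7.5 nL into about 7.5 µL; 0% = neutral wells and 100% = wells with inactivated enzyme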
# Target sequence (P55789 whole entry, looked up): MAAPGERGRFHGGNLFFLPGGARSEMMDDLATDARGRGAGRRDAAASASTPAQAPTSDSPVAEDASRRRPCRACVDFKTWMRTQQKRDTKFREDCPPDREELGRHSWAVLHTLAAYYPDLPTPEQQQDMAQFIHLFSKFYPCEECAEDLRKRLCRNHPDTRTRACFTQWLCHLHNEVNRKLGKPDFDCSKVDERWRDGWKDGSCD
# Vif TR-FRET = HIV-1 Vif–A3G interaction blockers – biochemical, TR-FRET, GST-Vif 1-94, biotin-A3G peptide, dose response retest, primary screen (AID 1117319); inhibition, %, or IC50 in µM where a hit was titrated; TR-FRET GST-Vif / biotin-A3G peptide binding; higher % means a stronger effect; test concentration not given here; strong numbers were not always called active; 0.57% of 260,000 active;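 active = above the screen mean plus three standard deviations and confirmed in dose response; inconclusive = results disagree or hit not tested in dose response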;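 also: Vif residues 1-94 fused to GST binding biotinylated APOBEC3G peptide 110-148; 0% = full assay without inhibitor and 100% = GST in place of GST-Vif; retest series ran down from 100 µM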
# Beta2AR agonist = agonists of human beta-2 adrenergic receptor inducing internalization; P07550; AID 504454; response, % (test concentration not listed); Am2.2-beta2AR cells, FAP receptor internalization, flow cytometry; reference of the scale not given here; 0.43% of 340,000 active;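 active = response above a set limit, near 3 SD of response in nonfluorescent compounds, cut at about 42% in these data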;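 also: stock transfer was 100 nL into about 11 µL; a reference agonist was the positive control; negative values mostly stem from fluorescent compounds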
# Target sequence (P07550 whole entry, looked up): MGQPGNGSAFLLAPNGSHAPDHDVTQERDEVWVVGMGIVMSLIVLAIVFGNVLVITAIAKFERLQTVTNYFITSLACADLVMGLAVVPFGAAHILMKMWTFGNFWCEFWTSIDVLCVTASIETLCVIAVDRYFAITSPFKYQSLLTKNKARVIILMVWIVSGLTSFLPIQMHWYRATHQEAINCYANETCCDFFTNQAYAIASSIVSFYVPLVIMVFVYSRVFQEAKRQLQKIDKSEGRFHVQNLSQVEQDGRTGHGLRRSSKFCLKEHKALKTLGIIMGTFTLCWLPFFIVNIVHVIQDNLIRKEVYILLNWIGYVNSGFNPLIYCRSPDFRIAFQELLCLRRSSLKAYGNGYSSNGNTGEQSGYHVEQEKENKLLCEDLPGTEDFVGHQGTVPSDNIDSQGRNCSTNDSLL
# RanGTP-Imp inh = disruptors of Ran-importin-beta complex formation – biochemical, FRET, CFP-Ran, YFP-importin-beta, homogeneous, primary screen | cell-free CFP-Ran/YFP-importin-beta FRET ratio | inhibition, % (no concentration beside the values) | 1.1% of 300,000 active;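 active = most replicates above 15%; inconclusive = exactly half above 15%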;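 also: 0% = DMSO wells and 100% = Ran loaded with GDP instead of GTP; wells of about 40 µL received 100 nL stock; the first replicate is given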
# Active calls of the source: *; ? = inconclusive; / = not tested or not shown. Outcome played no part in choosing rows, and some 6.3% of all compounds hit somewhere here.
SMILES,Calb FLC,LANA-H2B inh,HNF4A DNA FP,ALR H2O2 inh,Vif TR-FRET,Beta2AR agonist,RanGTP-Imp inh
COc1cc2c(cc1OC)CN(Cc1ccc(C)cc1)CC2,-11.0,0.1,-4.0,/,/,-1.8,?
CCOC(=O)c1ccc(NC(=O)C(CC)CC)cc1,0.9,-1.2,-4.2,-12.4,-0.2%,-2.2,6.8
O=C(Cn1cncn1)c1ccc(Cl)cc1,-8.4,2.5,1.9,-2.5,8.7%,29.0,3.1
O=S(=O)(c1ccc(F)cc1)N1CCCC(CO)C1 (configuration not stated),-0.8,-3.5,1.2,41.6,0.0%,-1.3,6.6
COc1ccccc1NC(=O)c1cc(N)cc(C(=O)Nc2ccccc2OC)c1,-4.1,1.6,-1.8,-4.6,/,-3.0,2.2
CCN(CC)C(=O)Sc1cccc2cccnc12,4.1,-1.2,0.3,1.7,-1.1%,-0.7,4.5
C=C(C)C(=O)Nc1cccc(C2=NOC3(C2)C[C@@H](C(N)=O)N(C(=O)C(=C)C)C3)c1 (some centres not stated),-0.1,0.9,-46.8,/,/,-4.6,1.8
CCOc1ccc(Cl)cc1CNc1nnnn1CC,2.4,0.4,-2.7,3.7,/,-3.3,-1.7
Cc1ccc(C)c(NC(=O)CN(C)C(=O)Cc2coc3cc(C)c(C)cc23)c1,-4.0,-1.2,-1.9,1.1,0.3%,0.4,8.3
CCc1nc(SCC(=O)Nc2ccccc2C)n[nH]1,1.1,-1.3,-0.3,-3.7,/,-1.7,3.2
COc1cccc(C2=CC(=O)CC(C)(C)C2)n1,-1.4,0.7,5.2,-5.7,/,-5.1,3.5
Cn1c(CNC2CCCCC2)c(C#N)c2ccccc21,-8.9,-0.9,-3.4,/,0.8%,-8.6,-4.9
N/C(=N\OS(=O)(=O)c1ccc(Cl)cc1)c1cccnc1,/,/,1.0,8.2,8.2%,-0.2,/
CC(C)(C)N(Cc1ccccc1)C(=O)CSc1ncn[nH]1,-6.6,-8.6,0.1,-3.4,/,9.0,1.9
COc1ccc(CNS(=O)(=O)c2ccc(C3CNC(=O)C3)cc2)cc1 (configuration not stated),2.5,-1.8,-2.1,-5.5,14.0%,2.2,0.9
CSCCCN1CCCC(CO)(Cc2ccc(F)cc2)C1 (configuration not stated),-5.0,3.7,-2.6,-1.6,1.3%,-2.7,-1.2
O=S(=O)(N/N=C/c1cccc(OC2CSC2)c1)c1ccccc1,-17.7,1.4,8.2,-2.6,-3.4%,-2.0,3.8
Cc1noc(C)c1C(=O)Nc1ccc(F)cc1F,1.2,/,0.1,/,5.9%,15.1,5.6
COc1ccccc1N1CCN(Cc2ccc(C(=O)O)cc2)CC1,-5.5,-2.5,0.6,/,-0.8%,-1.4,2.2
C/C(=N\O)C(C)(C)Nc1ccc(Br)cc1,2.9,-10.2,-0.3,39.2,/,-5.3,-0.3
O=C(COC(=O)CN1C(=O)c2cccc([N+](=O)[O-])c2C1=O)NC1CCS(=O)(=O)C1 (configuration not stated),1.4,3.0,3.4,-8.3,/,0.9,11.8
Cc1noc(C)c1NC(=O)N(C)C[C@H]1Oc2ccc(NC(=O)Nc3ccc4c(c3)OCO4)cc2C(=O)N([C@H](C)CO)C[C@@H]1C,/,8.1,5.7,-3.9,/,-1.0,/
CC(SCc1ccccc1)C(=O)N/N=C/c1cc2c(cc1Br)OCO2 (configuration not stated),-1.7,-3.4,0.3,-0.7,14.0%,-1.4,2.5
Cc1cc2c(cc1C)-c1nnc(-c3ccc4ccccc4n3)n1C(C)(C)C2,-6.5,-1.6,/,-5.9,-3.1%,/,-3.3
COc1ccccc1OCCNC(=O)c1cc(SC)ccc1Cl,3.6,-2.7,-0.1,11.0,/,-0.3,1.9
Cc1ccc(-c2noc(COC(=O)c3ccco3)n2)cc1,/,5.2,0.2,-0.6,/,-3.2,/
CN(C)CCCN1C(=O)c2oc3ccc(F)cc3c(=O)c2C1c1cccnc1 (configuration not stated),-0.2,5.7,-0.3,/,6.4%,6.5,-1.4
COC(=O)c1cn(CCOc2ccc(C)cc2)c2ccccc12,-9.8,4.6,-1.1,-6.6,2.4%,-6.7,6.3
Cc1cc(C)n(-c2ccc(C(=O)OCC(=O)Nc3ccc(S(N)(=O)=O)cc3)cc2)n1,/,-1.6,-1.6,-31.6,-7.5%,-6.0,/
Cc1cc(-c2ccc(C)c(S(=O)(=O)NCCCN(Cc3ccccc3)C(C)C)c2)on1,-21.9,-4.9,3.1,-11.8,/,-1.1,1.0
CCCNC(=O)c1nc(C)n(-c2cc(Cl)ccc2Cl)n1,-6.0,0.2,1.3,-5.4,-0.3%,-4.6,9.0
COc1ccccc1/C=N/NC(=S)Nc1cccnc1,7.0,1.3,2.3,12.8,17.1%,-0.3,1.2
CCN(C(=O)CSc1cccc[n+]1[O-])C1CCCCC1,/,-0.3,-1.3,-0.4,/,-0.5,/
CN(Cc1nccn1C)C(=O)CC1C(=O)NCCN1Cc1ccccc1C(F)(F)F (configuration not stated),9.7,2.1,-2.8,-7.9,/,0.1,2.7
OCCCc1nc2n(n1)C(c1ccccc1)C=C(c1ccccc1)N2 (configuration not stated),-9.8,9.3,-9.8,25.7,3.3%,2.5,-18.7
Cc1ccc(C(=O)OCC(=O)N2CCC(C)CC2)cc1S(=O)(=O)N1CCCCC1,4.3,1.4,0.4,0.8,2.9%,0.3,-2.4
O=C(Nc1c2c(nn1-c1ccccc1)CS(=O)C2)c1ccc(Br)o1 (configuration not stated),2.9,-0.3,1.1,-13.4,/,-2.2,?
CCC(C)[C@H]1CNCCN1CCCc1cc(OC)c(OC)c(OC)c1 (some centres not stated),-1.0,2.2,-0.8,-8.1,/,-0.2,-2.1
O=C(O)c1sccc1OCc1ccccc1,-4.0,0.7,7.1,-4.0,-3.8%,3.1,2.0
COc1ccc(CC(=O)NCCS(=O)(=O)N2CCN(c3ccccc3)CC2)cc1OC,1.1,4.6,-0.2,16.8,-3.3%,-2.2,1.7
C/C(=N\Nc1ccc(Cl)c(Cl)c1)c1ccc(-n2ccnc2)cc1,-1.5,0.0,-1.5,9.4,-3.8%,3.8,-2.0
CCOC(=O)N1CCN(c2c(N3CCOCC3)c(=O)c2=O)CC1,-4.6,-3.9,-3.7,-5.0,2.0%,6.2,0.6
C/C(=N\Nc1ccc([N+](=O)[O-])cc1)c1ccco1,-31.1,0.2,24.7,3.2,-12.2%,7.2,-3.4
CCCOC(c1ccccc1)(c1ccc(C(F)(F)F)cc1)C(Oc1nc(C)cc(C)n1)C(=O)O (configuration not stated),79.5*,4.0,5.1,96.3*,8.1%,9.4,?
CN(C(=O)COC(=O)c1ccc([N+](=O)[O-])cc1)c1ccccc1,-7.9,-2.7,0.1,-14.4,/,2.5,-4.4
CN(C(=O)COn1nnc2ccc(S(=O)(=O)N3CCOCC3)cc21)c1ccccc1,7.3,1.3,-0.2,1.7,2.4%,-7.6,1.8
COc1ccc(CN2CCN(S(=O)(=O)c3ccc(NC(C)=O)cc3)CC2)cc1,-1.0,-1.0,1.0,3.4,18.5%,3.1,4.2
Cc1cccc(OCC(O)CN2CCN(S(=O)(=O)c3ccc(C)cc3C)CC2)c1 (configuration not stated),18.1,-4.4,-4.8,/,/,-2.5,7.2
Cn1c(C(C(=O)NCC2CCCO2)N(C(=O)Cn2nnc3ccccc32)C2CCCCC2)nc2ccccc21 (configuration not stated),?,-1.7,3.6,-19.6,-0.1%,2.4,11.4
CC(C)c1ccc(OCC(O)CN2CCCC2)cc1 (configuration not stated),-9.5,-3.5,2.2,-13.5,-1.2%,-3.3,?
COC(=O)CCCC1=CC2=CC(=O)C(C)(OC(=O)c3cccs3)C(=O)C2=CN1c1cccc(C#N)c1 (configuration not stated),4.1,7.8,0.8,-24.4,2.5%,-6.0,7.5
O=C(NC1CCSC1=O)C1CC(=O)N(c2ccc(F)cc2)C1 (configuration not stated),-4.5,1.8,-0.8,/,/,-0.1,-1.7
O=C(Nc1nccs1)c1ccc(S(=O)(=O)NCC2CCCCC2)cc1,?,0.6,0.2,22.3,5.1%,-11.8,-1.4
CC1CCCN(CCCNC(=O)c2cn(C)c3ccc(S(=O)(=O)N(C)C4CCCCC4)cc3c2=O)C1 (configuration not stated),9.6,-1.1,4.7,-3.7,-5.5%,8.6,0.6
COc1ccccc1NC(=O)Cn1c(CCC(=O)O)ccc1-c1ccc(C)cc1,30.4,-4.3,4.1,45.6,-3.5%,-6.3,-1.9
CCOc1ccc(C(=O)C(C)OC(=O)Cn2[nH]c(=O)c3ccccc3c2=O)cc1 (configuration not stated),1.6,3.9,3.9,8.5,8.2%,-0.3,4.6
O=C(O)CC(c1cccc(C(F)(F)F)c1)N1CCS(=O)(=O)CC1 (configuration not stated),?,-2.3,1.2,-6.5,-11.9%,-2.6,-4.3
COc1ccc(-n2nc(C(=O)NCC(=O)NCc3ccco3)c3ccccc3c2=O)cc1Cl,8.2,2.8,-3.8,/,26.3%,2.6,?
CCOC1CCCC(n2cnc3c(=S)nc[nH]c32)O1 (configuration not stated),/,/,-1.8,/,-0.6%,7.3,/
CN(C)c1cccc(C(=O)N2CCC(n3nccc3NC(=O)C3CCOC3)CC2)c1 (configuration not stated),4.9,5.4,-1.0,12.1,/,-7.8,3.9
# More compounds follow:
SMILES,Calb FLC,LANA-H2B inh,HNF4A DNA FP,ALR H2O2 inh,Vif TR-FRET,Beta2AR agonist,RanGTP-Imp inh
Cc1nn(C(C)C(=O)N2CCCC2)c(=O)c2nn(-c3ccccc3)c(C)c12 (configuration not stated),0.7,1.9,4.2,-5.1,/,-3.8,27.0
CCn1c(=NC(=O)c2ccc(S(=O)(=O)N3CCOCC3)cc2)sc2cccc(OC)c21,8.9,-1.1,1.9,1.9,10.7%,4.6,-0.7
O=C(NCc1cccnc1)C(=O)NCC(c1ccco1)N1CCN(c2ccccc2)CC1 (configuration not stated),?,-0.6,0.5,98.2*,10.0%,6.4,5.2
Cc1ccc(C)c(OCC(=O)NC(Cc2c[nH]c3ccccc23)C(=O)O)c1 (configuration not stated),-11.3,2.4,-2.6,0.8,5.3%,-0.7,-0.8
O=C(Nc1nc2ccccc2s1)C1CCCO1 (configuration not stated),-0.5,3.6,-1.1,1.9,?,6.1,2.6
CC(=O)Nc1ccc(C2=NNC(=Nc3cccc(S(=O)(=O)N(C)C)c3)SC2)cc1,-4.1,-1.9,7.7,0.1,/,-3.4,6.5
C=CCn1c(SCC(=O)Nc2c(C)n(C)n(-c3ccccc3)c2=O)nc2scc(-c3ccccc3)c2c1=O,-9.6,-1.8,0.6,-2.7,-1.7%,0.1,0.6
CC(C)(C)Cc1nnc(NC(=O)CCc2ccccc2)s1,8.2,-0.1,-0.2,-8.1,15.8%,-3.0,?
Cc1cc(NC(=O)CCC2CCCC2)no1,-16.4,0.7,0.2,/,?,5.8,0.6
CCC(=O)N1CCC2(CC1)Oc1ccc(F)cc1C(=O)C21CC(c2ccccc2)=NO1 (configuration not stated),9.2,-6.6,0.3,-3.5,4.5%,-12.4,-2.0
COc1ccc(Cn2nnnc2C(CC(C)C)N2CCN(c3ccccc3)CC2)cc1 (configuration not stated),-26.8,-4.1,-2.6,5.2,9.3%,-0.3,-0.3
CCOc1ccccc1NC(=O)CN(C)S(=O)(=O)c1cccc2nsnc12,/,-0.2,2.7,/,21.3%,-1.5,/
COc1cccc(/C=C2/C(=O)NN(c3ccccc3)C2=O)c1,1.3,2.7,-0.1,?,0.8%,19.7,1.9
COCCN(C(=O)CSc1nncn1-c1ccccc1)c1c(N)n(Cc2ccccc2)c(=O)[nH]c1=O,-2.7,-0.7,0.1,-1.4,-0.2%,-9.4,-2.5
Cc1csc(NC(=O)Cc2ccccc2Cl)n1,2.3,0.8,3.9,2.1,-0.1%,2.5,0.5
CCC/C(=C1/c2ccccc2C(=O)N1c1ccccc1)c1ccc2c(c1)OCCO2,/,-11.4,-0.8,-17.6,/,0.4,/
